Screens (PubChem BioAssay)
Rango complex inh: inhibitors of Rango-importin beta complex formation. Rango CFP/YFP FRET sensor + importin beta, 45 min. Potency, µM (top dose mostly 92.2 µM), for the others: at the highest dose inhibition of complex formation. hit rate 0.031% among 340,000. AID 540263; active = rising FRET ratio curve, often small or poorly fitted; inconclusive = mostly compound fluorescence or quenching in the first reads; inactive = flat curves in all reads;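 also: potency is read from the fitted curve at half-maximal effect; 0% = DMSO wells and 100% = buffer wells lacking importin beta; nearly all actives have a fitted effect of over 15% in size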
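Inhibition scored from the CFP 486 nm/YFP 530 nm FRET ratio 45 min after adding 0.125 microM importin beta to 50 nM Rango biosensor preincubated 5 min with compound (room temperature, PBS with DTT, Tween-20, BSA). No-importin wells as positive control.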
miR-21 FLuc: raises the signal of a miR-21 reporter; Potency, µM (series often up to 38.3 µM), for the others: at the highest dose reporter change, positive = more light; HeLa miR-21 FLuc reporter, luciferase, 48 h; 340,000 tested, under 10 active; active = well fitted rising curve with a large enough effect; inconclusive = small, poorly fitted or top-dose-only effect; inactive = no such curve, though single readings can be large or run the other way;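 also: % of control where 0% means no effect; miR-21 action dims this reporter so a rising signal means less miR-21 action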
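HeLa cells stably expressing CMV-driven firefly luciferase with a downstream miR-21 binding sequence, endogenously expressing miR-21, were treated with titrations (up to about 40uM final) for 48 hours at 37 degree Celsius. Luciferase luminescence was read after lysis.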
Rango release inh: inhibitors of RanGTP-induced Rango-importin beta complex dissociation; Potency, µM (titrated, usually from 46.1 µM), for the others: at the highest dose activity change, negative = inhibition; Biochemical FRET Rango-importin beta, RanGTP-induced dissociation; O95149+P62826; hit rate 0.071% among 340,000; active means falling FRET ratio curve, often poorly fitted, with flat reads before Ran was added; inconclusive means other falling curves, or compound fluorescence or quenching; inactive means flat or rising ratio curve;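 also: potency is read from the fitted curve at half-maximal effect; % of control where 0% means no effect; nearly all actives have a fitted effect of over 45% in size; -100% = wells without RanGTP and RCC1; the record marks most hits as doubtful in a second field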
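Quantitative HTS using a FRET biosensor: 0.1 uM Rango, 0.25 uM importin beta, 0.6 uM Ran, 2 mM GTP, 0.2 uM RCC1 final, PBS with DTT, Tween-20 and BSA. Post-read taken 45 min after Ran addition.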
GLA inh pH 4.5: alpha-galactosidase A (human) inhibition, pH 4.5; 230,000 tested, under 10 active; purified enzyme, 4-MU-alpha-Gal fluorescence, pH 4.5; activity change, negative = inhibition, % at 105 µM; P06280; inconclusive = small, poorly fitted or top-dose-only inhibition, or a rising curve; inactive = flat fitted curve, though single readings scatter; no compound was filed as active;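 also: 0% = full activity with enzyme and -100% = basal without enzyme; dose as in the result columns while the protocol names 77 µM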
Target sequence (P06280 whole entry, looked up): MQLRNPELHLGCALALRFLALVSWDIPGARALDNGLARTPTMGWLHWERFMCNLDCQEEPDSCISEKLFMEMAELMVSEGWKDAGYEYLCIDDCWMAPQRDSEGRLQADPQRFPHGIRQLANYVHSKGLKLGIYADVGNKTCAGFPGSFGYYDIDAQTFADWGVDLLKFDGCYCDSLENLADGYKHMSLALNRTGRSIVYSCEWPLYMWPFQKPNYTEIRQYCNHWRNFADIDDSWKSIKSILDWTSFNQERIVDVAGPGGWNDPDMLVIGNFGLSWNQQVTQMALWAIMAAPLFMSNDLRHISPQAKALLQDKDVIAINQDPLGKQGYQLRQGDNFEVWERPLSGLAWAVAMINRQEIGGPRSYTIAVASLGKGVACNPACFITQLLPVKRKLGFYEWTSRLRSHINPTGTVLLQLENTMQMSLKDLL
The depositor's hits bear a star; ? = inconclusive; nt = no result given; [ ] = dose if it differs, or a comment. An excerpt, so the mix of outcomes need not match the whole.

SMILES	Rango complex inh	miR-21 FLuc	Rango release inh	GLA inh pH 4.5
NC(=O)c1c(NC(=O)c2ccc([N+](=O)[O-])o2)sc2c1CCCC2	-0.4%	-2%	-2%	nt
COC(=O)c1ccc(Cn2cnc3c(cnn3-c3ccc(C)c(C)c3)c2=O)o1	-1.2%	-4%	-16%	-9
COc1ccc(-c2csc(Nc3cc(C)ccn3)n2)cc1C	-0.1%	-36%	-4%	nt
O=C(NNC(=O)c1ccc2c(=O)n3c(nc2c1)CCC3)c1cccc(Cl)c1	0.6%	nt	4%	nt
CCCN1CCN(CCCNC(=O)CCCn2nc(C)c3sc4ccccc4c3c2=O)CC1	0.3%	-3%	0%	nt
Cc1ccc(NC(=O)CCC(=O)OCC(=O)c2ccc(-c3ccccc3)cc2)cc1	7.2%	-5%	13%	nt
COCCNC(=O)C(c1ccc(OC)cc1)N(CCOC)C(=O)CCC(=O)Nc1nccs1 (centres undefined)	0.8%	7%	-4%	nt
CC1=C(Sc2nc3ccccc3[nH]2)C(=O)NC(C)(C)C1	0.3%	-20%	-14%	-4
O=C(Cc1cccs1)Nc1ccccc1-c1nc2ccccc2[nH]1	3.6%	20%	-10%	3
COc1ccccc1N1CCN(C(=O)c2cccc(C(=O)N3CCN(c4ccccc4OC)CC3)c2)CC1	-2.4%	23%	0%	nt
Nc1cccc(-c2nc3ccccc3[nH]2)c1	0.1%	-56%	16%	-5
COc1ccccc1OCCNc1ccc(S(=O)(=O)N2CCCC2)cn1	0.0%	nt	15%	nt
Cc1cccc(N2CCN(C(=O)C(NS(=O)(=O)c3cccs3)c3ccccc3)CC2)c1C (centres undefined)	-0.3%	16%	-8%	-10
COC(=O)N1[C@H](C)C=C[C@]1(Cc1ccccc1)C(=O)NCCCNc1ncc(C(F)(F)F)cc1Cl	0.3%	nt	25%	-23
COc1cc(Br)cc2cc(C(=O)N3CCCCC3C)c(=O)oc12 (centres undefined)	-1.8%	0%	-2%	-5
CSc1ccccc1NC(=O)c1cc(-c2ccc3c(c2)OCO3)on1	-2.1%	-30%	4%	nt
CC1CCc2sc(C(=O)OC(C)C(=O)Nc3ncc(Cl)cc3Cl)cc2C1 (centres undefined)	nt	1%	nt	-3
Cc1cc(C)c(OCCCNC2CCCC2)c(Br)c1	-1.2%	1%	-12%	nt
CCN(CC)C(=O)CSc1nnc2c3ccccc3n(C)c2n1	-5.5%	-1%	5%	nt
O=C(CSc1nccn(-c2cccc(F)c2)c1=O)Nc1ccc(Cl)cc1F	1.4%	5%	-1%	nt
O=CN1CCN(C(=O)c2ccc(Br)o2)CC1	-2.3%	0%	-12%	nt
Cc1ccc2nc(SCC(=O)NCCCN3CCCC3=O)[nH]c2c1	2.6%	nt	27%	nt
COc1ccc(Cl)cc1S(=O)(=O)Oc1ccc(NC(C)=O)cc1	2.1%	-8%	21%	-8
CC1Cc2nc(SCC(=O)Nc3ccc(F)cc3F)n(C)c(=O)c2S1 (centres undefined)	0.2%	0%	-3%	5
CCCCNC(=S)Nc1ccc(-c2nc3ccc(C)cc3s2)cc1	?	-66%	-1%	3
CCCCC(CC)C(=O)Nc1ccc(Nc2ccccc2)cc1 (centres undefined)	0.3%	4%	11%	6
CC1=C/C(=C(\c2ccc(O)c(C)c2)c2ccccc2S(=O)(=O)O)C=CC1=O	-2.2%	0%	-2%	nt
COc1cccc(CCNC(=O)CCc2nnc(-c3ccc4c(c3)OCO4)o2)c1	-3.1%	-11%	-11%	nt
CCOC(=O)C1CCCN(C(=O)c2ccc(S(=O)(=O)NCc3ccco3)cc2)C1 (centres undefined)	-5.2%	nt	20%	nt
COC(=O)c1nn(-c2cccc(C)c2)c2nnc(Cc3ccccc3)c(=O)n12	-0.8%	-10%	1%	1
CSc1ncccc1C(=O)OCC(=O)c1ccc(S(=O)(=O)N2CCCCC2)cc1	4.6%	nt	-19%	nt
CCCNC(=O)COc1nc2ccccc2nc1N1CCOCC1	-1.6%	-7%	9%	-9
CCOc1ccc(OCCOCCN2CCCC2)cc1	-2.1%	0%	-15%	nt
O=c1[nH]c2ccc(S(=O)(=O)N3CCCCC3)cc2[nH]1	0.2%	2%	20%	4
Cc1nn(-c2ccccn2)c2c1C(c1ccncc1)C1=C(CC(C)(C)CC1=O)N2 (centres undefined)	-3.2%	-4%	9%	6
O=C1NC(c2ccccc2)=C(c2nc3ccccc3s2)C(c2ccc(O)cc2)N1 (centres undefined)	-0.6%	-1%	21%	-3
COCCCNC(=S)Nc1cccc2ncccc12	0.1%	1%	14%	-2
CCOCCCN1CC(=O)N2[C@@H](Cc3c([nH]c4ccccc34)C2(C)C)C1=O	1.5%	-6%	-16%	nt
CC(C)OC(=O)c1c(-c2ccc(C(C)C)cc2)csc1NC(=O)C1CCCO1 (centres undefined)	-0.2%	0%	21%	2
Cc1ccc2[nH]c3c(N4CCN(Cc5ccccc5)CC4)ncnc3c2c1	-3.4%	?	-5%	-7
CN(C)c1ccc(NC(=O)c2ccc(COc3cccc(Cl)c3)o2)cc1	0.2%	-20%	3%	-4
O=C(c1ccc([N+](=O)[O-])cc1[N+](=O)[O-])n1cnc2ccccc21	-1.3%	8%	-16%	2
N#Cc1ccc(N2CCN(c3ccc(F)cc3)CC2)cc1	?	-21%	-6%	-1
O=S(=O)(c1ccc2c(c1)OCCO2)N1CCC(c2nc3ccccc3s2)CC1	-2.4%	-1%	-6%	-4
Cn1cnnc1SCC(=O)c1ccc(OC(F)F)cc1	-4.2%	-1%	-10%	12
Cc1ccc(S(=O)(=O)N(Cc2c(F)cccc2Cl)C(=O)N2CCN(C)CC2)cc1	-0.7%	nt	42%	nt
COc1cc(OC)c2cc(C(=O)N[C@@H](Cc3ccccc3)C(=O)O)n(C)c2c1	-4.4%	2%	0%	nt
O=C(NC1CCCC1)C(c1ccc(N2CCOCC2)cc1)N(Cc1ccco1)C(=O)c1ccco1 (centres undefined)	-0.5%	-2%	-2%	-8
CN(CC(=O)Nc1ccc(N2CCOCC2)cc1)C(=O)CSc1ccc(F)cc1	0.6%	nt	-7%	nt
CNC(=S)N(CCc1c(C)[nH]c2ccc(OC)cc12)Cc1cc(OC)c(OC)c(OC)c1	-1.4%	-4%	-9%	-3
CCCCN(C(=O)c1cc2c(s1)CCC2)c1c(N)n(CCC)c(=O)[nH]c1=O	-1.7%	nt	-10%	nt
CC(C)(C)C(=O)Nc1ccc(C(=O)COC(=O)c2ccccn2)cc1	-2.3%	nt	-4%	nt
Cc1ccccc1CN1[C@@H](CC2CCCCC2)COCCS1(=O)=O	0.0%	13%	7%	nt
CC(=O)c1cnc2c(-c3ccccc3)cnn2c1C	-1.2%	-41%	-7%	4
Cc1c(O)ccc(/C=N/Nc2nc(-c3cccnc3)nc3ccccc23)c1O	?	0%	-6%	-1
CC(=NNC(=O)c1cc(C)nc2ccccc12)c1ccc(N2CCOCC2)cc1	3.7%	nt	7%	nt
Brc1cc(Br)c2nc(-c3ccc(N4CCOCC4)cc3)ccc2c1	?	-68%	?	0
O=c1c2ccccc2c(C=NCCc2ccccc2)c(O)n1Cc1ccccc1	0.1%	-3%	-11%	0
CCN(CC)c1ccc(/C=C/c2cc(-c3ccccc3)c3ccccc3n2)cc1	3.0%	-3%	0%	-14
CC(=O)Nc1ccccc1C(=O)C(=O)Nc1cccc(C(=O)NCc2ccc(C)cc2)c1	nt	-8%	nt	1

Next structures.
SMILES	Rango complex inh	miR-21 FLuc	Rango release inh	GLA inh pH 4.5
CCC1CC(=O)CCN1S(=O)(=O)c1ccc(C)cc1 (centres undefined)	0.1%	nt	0%	nt
CC/C(=N\NC(=O)COc1ccc(Br)cc1)c1ccc(OC)c(OC)c1	-3.9%	-1%	1%	-1
NS(=O)(=O)c1ccc(CCNC(=O)COC(=O)c2nc(Cl)ccc2Cl)cc1	-0.8%	nt	-7%	nt
CCN1CCN(CCC(=O)Nc2ccc(Br)c(C)c2)CC1	6.7%	-17%	11%	nt
O=C(NCC(c1ccco1)N1CCN(c2ccccc2)CC1)OCc1ccccc1 (centres undefined)	?	-14%	-25%	10
Cc1ccc(-c2cc(C(F)(F)F)c(C#N)c(=O)[nH]2)cc1	2.5%	1%	-10%	-7
C/C=C/c1cc(CN2CCN(c3ccccc3)CC2)c(O)c(OC)c1	4.0%	-1%	-11%	-11
O=C(CCn1c(=O)[nH]c2ccsc2c1=O)N1CCc2ccccc2C1	1.8%	-4%	4%	-6
N=C(N)SCc1cccc2ccccc12	0.7%	11%	?	3
CCN1CCN(C(c2ccccc2OC)c2nnnn2C2CCCCC2)CC1 (centres undefined)	0.1%	0%	-22%	-3
Cc1sc2nc(CSC(C)C(=O)Nc3cc(S(C)(=O)=O)ccc3Cl)[nH]c(=O)c2c1C (centres undefined)	?	nt	-18%	nt
Cc1ccc(NS(=O)(=O)c2ccc(C(=O)NCCCN3CCCC3=O)cc2)cc1	1.1%	nt	9%	nt
COc1ccc(C2(O)C(=O)Nc3ccc(C)cc32)cc1 (centres undefined)	0.8%	0%	1%	nt
COc1ccc(N=C2C(=O)Nc3c(C)cccc32)cc1	-1.6%	-18%	-11%	-1
c1ccc(-n2cnnc2SCc2nc3ccccc3s2)cc1	?	-53%	?	-2
CC(=O)c1cccc(NC(=O)N2CCC(NC(=O)C3CCCCC3)CC2)c1	0.9%	0%	-2%	nt
COc1ccc(-c2nc(N)nc(N)n2)c(O)c1	0.9%	nt	-7%	nt
Cc1ccc(Nc2nc(N)nc(CSc3nc(C)cc(C)n3)n2)cc1	4.4%	-27%	0%	12
CCOc1ccccc1Nc1nc(-c2cccnc2)cs1	5.1%	-13%	-7%	nt
Cc1noc(C)c1CC(=O)Nc1ccc2c(c1)OCO2	-0.1%	nt	-4%	nt
Cn1ncc2c(Nc3ccc([N+](=O)[O-])cc3)nc(Cl)nc21	?	-1%	-3%	5
O=C(NCc1ccccc1Cl)c1cc2c(s1)CS(=O)(=O)C2	-1.4%	-3%	-11%	nt
COc1ccc(C(=O)CN2C(=O)c3ccccc3C2=O)c(OC)c1	-0.9%	-6%	10%	nt
CC(C)(C)NC(=O)COC(=O)c1snc(C(=O)NC2CCCCC2)c1N	0.1%	8%	1%	6
Cc1noc(C)c1S(=O)(=O)N(C)C[C@H]1Oc2ccc(NC(=O)NC(C)C)cc2C(=O)N([C@H](C)CO)C[C@@H]1C	-0.3%	nt	-3%	nt
COc1ccc(C2=NN(C(=O)CSc3nc(=O)n4ccc(C)cc4n3)C(c3ccc(C)cc3)C2)cc1 (centres undefined)	1.6%	nt	-3%	nt
O=C(COc1ccc2c3c(c(=O)oc2c1)CCCC3)NCC(O)c1ccccc1 (centres undefined)	7.1%	4%	5%	nt
Cc1nc2c(C)cccn2c(=O)c1NC(=O)c1ccc(Br)o1	-1.0%	nt	11%	nt
O/C(=C\Sc1nnc(Cc2ccccc2)o1)c1ccc(Br)cc1	2.3%	-5%	-14%	-5
Cc1ccc(-c2nc(C=Nc3cccc(C)c3)c(O)o2)cc1	?	-5%	-53%	7[21.1 µM]
Cc1ccc(CN2C(=O)CCC2C(=O)NCCCN2CCCCC2C)cc1 (centres undefined)	-1.4%	-1%	0%	-7
CCN1CCN(c2ccc(S(=O)(=O)N3CCOCC3)cc2NC(=O)CCC(C)C)CC1	4.1%	nt	-12%	nt
NS(=O)(=O)c1ccc(-n2nncc2C23CC4CC(CC(C4)C2)C3)cc1	-2.2%	-26%	0%	6

Part of the list above, set out differently:
Compound,Rango complex inh,miR-21 FLuc,Rango release inh,GLA inh pH 4.5
NS(=O)(=O)c1ccc(-n2nncc2C23CC4CC(CC(C4)C2)C3)cc1,-2.2%,-26%,0%,6
Cc1nc2c(C)cccn2c(=O)c1NC(=O)c1ccc(Br)o1,-1.0%,nt,11%,nt
CCN1CCN(c2ccc(S(=O)(=O)N3CCOCC3)cc2NC(=O)CCC(C)C)CC1,4.1%,nt,-12%,nt
Cc1ccc(-c2nc(C=Nc3cccc(C)c3)c(O)o2)cc1,?,-5%,-53%,7[21.1 µM]
Cc1ccc(CN2C(=O)CCC2C(=O)NCCCN2CCCCC2C)cc1 (centres undefined),-1.4%,-1%,0%,-7
